CBX7 inh: CBX7 inhibition, primary AlphaScreen. O95931. AlphaScreen His6-CBX7 / biotin-H3K27me3 peptide binding; stronger effect = lower value. normalised signal (fraction of DMSO) (concentration not given with the values). 66,000 tested, 1.1% active. AID 1224903; in the data active = normalised signal below about 0.5;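 note: 100 nL library stock added to about 20 µL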
Target sequence (O95931 whole entry, looked up): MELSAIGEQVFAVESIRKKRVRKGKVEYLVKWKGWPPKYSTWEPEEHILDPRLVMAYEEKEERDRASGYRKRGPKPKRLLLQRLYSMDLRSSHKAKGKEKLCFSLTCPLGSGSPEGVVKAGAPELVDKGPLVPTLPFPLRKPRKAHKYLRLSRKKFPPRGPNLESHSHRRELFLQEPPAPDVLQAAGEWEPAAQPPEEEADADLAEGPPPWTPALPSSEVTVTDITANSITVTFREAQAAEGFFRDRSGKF
CBX7 inh z-score: recorded beside CBX7 inh, whose call it bears; z-score; measured here: z-score of CBX7 signal; some inactives read as strong as hits; reference of the scale not given here;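 same signal on another scale; lower means less binding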
* marks the source's active call; other numbers are inactive results; & = joins results of further samples. The list is partial. The share of hits here may be higher or lower than overall.

SMILES	CBX7 inh	CBX7 inh z-score
C=CCN(c1ccccc1)S(=O)(=O)c1ccc2c(c1)CCN2C(=O)CC	1.17	1.8
COc1cccc(C(=O)Nc2cc(-c3nc4ccccc4s3)ccc2C)c1	1.04	1.45
CCN(CC)S(=O)(=O)c1ccc2[nH]cc(C(=O)NCc3ccccc3Cl)c(=O)c2c1	0.984	-0.248
COc1ccc(NC2CC(=O)N(CCc3ccccc3)C2=O)cc1 (configuration not stated)	0.964	-0.971
COc1ccc(C(=O)CC2(O)C(=O)N(Cc3ccccc3)c3ccccc32)cc1 (configuration not stated)	0.994	-0.0154
COC(=O)CNC(=O)Cn1cnc2sc(C)c(C)c2c1=O	1.12	0.775
O=C(NCc1ccccn1)c1ccc2c(c1)N(Cc1c(F)cccc1Cl)C(=O)CS2	0.97	-1.18
COc1ccccc1N1CCN(C(=O)c2cc(-c3ccc(F)cc3)on2)CC1	1.01	0.458
CCC(C)NC(=O)CCc1nc(-c2ccccc2F)no1 (configuration not stated)	1.02	0.562
COc1ccc(-c2cc(C(=O)N3CCc4ccccc4C3)no2)cc1	0.893	-0.376
CCC(Cc1ccccc1)NC(=O)c1csc2c1CCCC2 (configuration not stated)	1.01	0.181
CC(Oc1ccc(Cl)cc1Cl)C(=O)Nc1ncccn1 (configuration not stated)	1.06	1.83
CCOC(=O)N1CCN(c2c(NCC3CCN(Cc4cccc(C)c4)CC3)c(=O)c2=O)CC1	1.01	0.157
COc1ccc(-c2noc(CCC(=O)NCc3ccc4c(c3)OCO4)n2)cc1	0.932	-0.0679
c1ccc(-c2nnc3ccc(NCCCN4CCc5ccccc5C4)nn23)cc1	0.827	-2.42
CC(C)(C)NC(=O)CSCc1cnn(-c2ccccc2)c1-n1cccc1	1.02	1.07
Ic1ccc(Nc2nc3nonc3nc2NCc2ccco2)cc1	0.843	-7.08
CCc1nnc(NC(=O)c2cc3ccccc3cc2OC)s1	1.02	0.132
COc1ccc(NC(=O)c2sc3nc(-c4ccc(F)cc4)cn3c2C)cc1OC	0.926	-1.41
CCOc1ccc(C(O)Cn2c(=N)n(CCN3CCCCC3)c3ccccc32)cc1 (configuration not stated)	1.02	0.754
Cc1cccc(N2C(=O)c3ccc(C(=O)Nc4nccs4)cc3C2=O)c1	0.886	-2.08
CC(Oc1ccccc1)C(=O)N1CC(=O)Nc2ccc(Cl)cc2C1c1ccccc1 (configuration not stated)	0.654	-3.31
CCN1CCN(C(c2cccs2)C(C)NS(=O)(=O)c2ccccc2)CC1 (configuration not stated)	1.02	0.482
CCCc1ccc(-c2nc(Cc3ccccc3)no2)cc1	2.09	27.1
CCCOc1ccccc1C1CC(=O)Nc2cc(OC)cc(OC)c21 (configuration not stated)	1.2	1.29
Fc1ccc(Nc2nc3nonc3n3nnnc23)cc1	1.04&0.953	0.574&-1.17
CC(C)c1ccc(NC(=O)C2CCN(S(=O)(=O)c3cccnc3)CC2)cc1	1.02	0.456
CC12c3ccccc3C(c3ccccc31)C1C(=O)N(c3ccc4c(c3)OCO4)C(=O)C12 (configuration not stated)	0.738	-1.03
O=C(CCc1nc(-c2ccccc2F)no1)NCCN1CCc2ccccc2C1	1.09	3.11
COC(=O)c1ccccc1NC(=O)c1sc2nc(-c3ccccc3)cn2c1C	0.963	-0.702
O=C(Nc1nc(-c2ccccc2)c(C(=O)c2ccccc2)s1)c1cccc(Br)c1	0.992	-0.123
COc1ccc(CNC(=O)c2nc(-c3ccc(OC)c(OC)c3)oc2C)cc1	1	0.0359
Fc1ccccc1COc1ccc(-c2nnn(Cc3ccccc3Cl)n2)cc1	1.31	3
Cc1c(C(=O)N2CCOCC2)oc2ccc(S(=O)(=O)N3CCC4(CC3)OCCO4)cc12	1.07	0.694
COc1ccc(C2=NOC(C(=O)NCc3ccc(F)cc3)C2)cc1 (configuration not stated)	1.05	0.624
COc1cccc(NC(=O)C(NS(=O)(=O)c2cccs2)C(C)C)c1 (configuration not stated)	1.13	1.65
c1ccc(N2CCN(c3ccc4nncn4n3)CC2)cc1	1.14	3.93
Cc1ccc(NC(=O)C2CCN(S(=O)(=O)c3cccc4nonc34)CC2)cc1F	1.01	0.00817
O=C(Cc1c(C(=O)O)[nH]c2ccc(Cl)cc12)NCCCN1CCN(c2ccccc2F)CC1	0.986	-0.423
CCOc1ccc(-n2cc(C(=O)NCCCN(CC)CC)c3cc(OC)c(OC)cc3c2=O)cc1	1.31	3.15
COc1cccc(Cn2cc(C(=O)c3ccccc3)c(=O)c3cc(F)cc(F)c32)c1	0.699	-2.87
CC(C)CN(CC(C)C)S(=O)(=O)c1ccc(C(=O)Nc2nnc(-c3cccs3)o2)cc1	0.963	-0.923
CCCN(C(=O)Cn1nc(Cc2ccncc2)c2ccccc2c1=O)c1ccccc1F	1.03	0.7
O=C(NC1CC1)C1C2C=CC3(CN(Cc4ccccc4Cl)C(=O)C13)O2 (configuration not stated)	1	0.0749
CC1CC(C)CN(S(=O)(=O)c2ccc3c(c2)N(CC(=O)NCc2ccccc2)C(=O)CO3)C1 (configuration not stated)	0.981	-0.547
Cc1cccc(NC(=O)CSc2nnc(CNC(=O)c3ccccc3F)o2)c1	0.989	-0.311
COc1ccc(CCNC(=O)c2cccc3c2C(=O)N(C2CCCCC2)C3)cc1OC	0.948	-0.0521
O=[N+]([O-])c1ccc(O)c(C(C#Cc2ccccc2)N2CCOCC2)c1 (configuration not stated)	0.873	-0.29
Cc1oc(-c2cccc(Cl)c2)nc1CN1CCC(C(=O)NC2CCCc3ccccc32)CC1 (configuration not stated)	0.947	-0.453
CCN1CCCC1CNC(=O)c1cc2c(s1)-c1ccccc1OC2 (configuration not stated)	1.17	8.01
O=C(Nc1sc2c(c1C(=O)NCc1ccccc1)CCCC2)c1ccccc1F	0.99	-0.241
Cc1nnc(NC(=O)CSc2nnc(CNC(=O)c3cccs3)o2)s1	1.05	1.53
CCOC(=O)c1ccc(NC(=O)C2CCCN(c3nc4ccc(OCC)cc4s3)C2)cc1 (configuration not stated)	1.01	0.398
COc1cccc(NC(=O)C2(NS(=O)(=O)c3cccc4cccnc34)CCCCC2)c1	1.02	0.969
Cc1ccc2oc(-c3ccc(C)c(NC(=O)c4cccc(F)c4)c3)nc2c1	1.05	2.03
COc1ccc(-c2csc(Nc3ncccn3)n2)cc1C	0.971	-0.75
COc1ccc(Cc2nnc(NC(=O)c3ccc(F)cc3)s2)cc1OC	1.05	1.19
CCOc1ccc(NC(=O)C2CC2(c2cccc(OC)c2)c2cccc(OC)c2)cc1 (configuration not stated)	0.87	-1.8
Cc1ccc2oc(-c3cccc(NC(=O)c4ccccc4Cl)c3C)nc2c1	1.13	1.22
O=C1CC(NCCc2ccc(F)cc2)C(=O)N1c1ccc(Cl)cc1 (configuration not stated)	1.03	0.859

(continued)
SMILES	CBX7 inh	CBX7 inh z-score
COc1ccccc1NC(=O)CCN1CCN(C/C=C/c2ccccc2)CC1	0.982	-0.474
O=C1C=C(c2ccccc2)C[C@H](c2ccccc2)[C@H]1n1nnc2ccccc21	1.12	0.846
Cc1ccc(S(=O)(=O)c2cn(CC(=O)Nc3ccc(F)cc3)c3ccc(Cl)cc3c2=O)cc1	0.943	-0.82
Cc1ccc(Cl)cc1NC(=O)C(=O)NCc1cccnc1	1.04	1.11
COc1ccc(-n2c3c(cc(C(=O)Nc4ccc(Br)cn4)c2=O)C(=O)CC(C)(C)C3)cc1	0.982	-0.234
O=C(O)c1ccc(NCc2nc3ccccc3n2CCOc2ccccc2Cl)cc1	0.978	-0.812
COc1ccc(NC(=O)c2cccc3c2C(=O)N(c2ccc(OC)cc2)C3)cc1	0.954	-1.12
CCOc1ccc2nc(N3CCC(C(=O)NC4CCN(Cc5ccccc5)CC4)CC3)sc2c1	1.04	1.53
Cc1cc(C)nc(-n2nc(C)c3c2C[C@@H]2[C@H]3C2(C)C)n1	0.829	-1.86
COc1ccc(CCNC(=O)c2n[nH]c(=O)c3ccccc23)cc1OC	1.14	0.859
CCCCN(C(=O)c1cc(C)cc(C)c1)C1CC2CCC(C1)N2C (configuration not stated)	1.02	0.529
Cn1c(=O)c(Cc2cccc(F)c2)nc2ccccc21	0.951	-0.515
Cc1nc2c(cc(Oc3nnc(-c4ccc(C)c(C)c4)c4ccccc34)c3ccsc32)s1	0.785	-2.11
CCOC(=O)N1CCN(C(=O)Cn2cnc3c(nnn3-c3ccc(OC)cc3)c2=O)CC1	0.944	-1.07
COc1ccccc1N1CCN(c2ncc(C(=O)Nc3ccccc3F)c3ccccc23)CC1	0.981	-0.486
COc1ccccc1N1CCN(C(=O)CCc2nc(-c3ccccc3F)no2)CC1	1.01	0.386
Cc1ccc(CNC(=O)c2cnn3c(C)c(Cc4ccc(C)cc4)c(C)nc23)cc1	0.972	-0.782
O=C(CSc1nnc(-c2ccccc2O)n1Cc1ccccc1)Nc1ccc(Br)cc1	0.927	-2.84
COc1cc(Cl)c(C)cc1NC(=O)c1cc2c(-c3ccccc3F)nn(C)c2s1	1.1	1.99
COc1ccc(C)cc1NC(=O)c1cn(C)c(=O)c2cc(OC)c(OC)cc12	1.04	0.393

Some of these compounds in order of count of non-hydrogen atoms, high to low:
SMILES	CBX7 inh	CBX7 inh z-score
Cc1nc2c(cc(Oc3nnc(-c4ccc(C)c(C)c4)c4ccccc34)c3ccsc32)s1	0.785	-2.11
O=C(NCc1ccccn1)c1ccc2c(c1)N(Cc1c(F)cccc1Cl)C(=O)CS2	0.97	-1.18
O=C(CCc1nc(-c2ccccc2F)no1)NCCN1CCc2ccccc2C1	1.09	3.11
CCCCN(C(=O)c1cc(C)cc(C)c1)C1CC2CCC(C1)N2C (configuration not stated)	1.02	0.529

Further records:
SMILES	CBX7 inh	CBX7 inh z-score
Cc1ccc(S(=O)(=O)c2nc(-c3cccs3)oc2SCc2ccccc2F)cc1	0.962	-0.0659
Fc1ccc(Nc2c(-c3cccnc3)nc3ccccn23)cc1	1.42	4.05
COc1cc(Nc2nc(-c3ccccc3)cs2)c(OC)cc1Cl	0.751	-4.45
O=C(Nc1ccc(F)cc1F)C1CC(c2ccc(F)cc2)=NO1 (configuration not stated)	1.05	2.04
Cc1cc(Cl)ccc1OC1C(=O)N(c2cccc(C(F)(F)F)c2)C1c1ccc2c(c1)OCO2 (configuration not stated)	1.03	0.463
Cc1nc(C#N)c(NCc2ccc3c(c2)OCO3)o1	1.01	0.27
CC1(C)CC(=O)c2cc(C(=O)O)c(=O)n(-c3ccc(Cl)cc3)c2C1	1.1	1.76
COc1cc(OC)cc(C(=O)Nc2ccc3oc(-c4ccccc4Br)nc3c2)c1	1.04	0.0584
Cc1onc(-c2ccccc2)c1C(=O)NCC(C)C	1.47	2.05
CCCSCCCNC(=O)CS(=O)(=O)Cc1nc(-c2ccccc2C)oc1C	0.91	-1.69
O=C(NCCc1ccsc1)C1CCN(c2ccc(N3CCOCC3)nn2)CC1	0.967	-0.623
COc1ccc(OCc2nc3ccccc3n2Cc2ccc(Cl)cc2)cc1	1.02	0.793
O=C(CSc1ncc(-c2ccc(Cl)cc2)[nH]1)Nc1ccccc1F	0.83	-4.54
COc1ccc(-c2cc(C(=O)Nc3cc(Cl)ccc3Cl)no2)cc1OC	0.966	-1.12
O=C(CSc1nnc(-c2ccc3c(c2)OCCO3)o1)N1CCCC1	1.06	2.75
O=c1oc2ccc(Cl)cc2cc1-c1nnc(-c2cccc(Br)c2)o1	0.936	-1.25
CN1c2ccccc2Oc2nnc(N3CCN(C(c4ccccc4)c4ccccc4)CC3)cc21	0.982	-0.949
CCc1ccc(OCc2nc(-c3cccnc3)no2)c(Br)c1	0.82	-2.13
CC(C(=O)N1CCN(c2ccc(F)cc2)CC1)n1ncc2ccccc21 (configuration not stated)	0.801	-3.11
CCOc1ccc(Sc2cc(C(=O)NCCCN3CCOCC3)c3ccccc3n2)cc1	1.02	0.753

Six records picked at random from those above:
SMILES	CBX7 inh	CBX7 inh z-score
CCCSCCCNC(=O)CS(=O)(=O)Cc1nc(-c2ccccc2C)oc1C	0.91	-1.69
Cc1nc(C#N)c(NCc2ccc3c(c2)OCO3)o1	1.01	0.27
O=c1oc2ccc(Cl)cc2cc1-c1nnc(-c2cccc(Br)c2)o1	0.936	-1.25
O=C(CSc1ncc(-c2ccc(Cl)cc2)[nH]1)Nc1ccccc1F	0.83	-4.54
CC1(C)CC(=O)c2cc(C(=O)O)c(=O)n(-c3ccc(Cl)cc3)c2C1	1.1	1.76
O=C(CSc1nnc(-c2ccc3c(c2)OCCO3)o1)N1CCCC1	1.06	2.75

Additional results:
SMILES	CBX7 inh	CBX7 inh z-score
O=C(CSc1nccn1-c1ccc(Cl)cc1)Nc1nccs1	0.973	-0.0945
FC(F)(F)c1cccc(N2CCN(c3nc4cccnc4s3)CC2)c1	0.977	-0.595
COc1cc(OC)c(Nc2nnc(-c3cc4c(CO)cnc(C)c4oc3=O)s2)cc1Cl	0.961	-1.76
COc1ccc(-c2nc3cc(C)ccn3c2NC(=O)Cc2cccc3ccccc23)cc1	0.978	-0.627
Cc1cc(N2CCN(c3ncccn3)CC2)nc2ccc(NC(=O)Cc3c(F)cccc3Cl)cc12	1.06	2.59
CCc1ccc(-c2nc(SCC(=O)NCCOC)c(-c3ccc(OC)c(OC)c3)[nH]2)cc1	0.867	-2.18
COc1ccc2nc(N3CCC(C(=O)NCc4ccc(C)cc4)CC3)sc2c1	1.08	1.3
Cc1ccc(Nc2cc(C)nc3ccc(C)cc23)cc1	1.06	0.772
CC(C)c1ccc(NC(=O)C2c3ccccc3C(=O)N3CCc4ccccc4C23)cc1 (configuration not stated)	0.812	-3.07
CC(=O)Nc1nonc1-c1nc2ccccc2n1Cc1ccc(C)cc1	0.921	-1.55
O=C1CN(C(=O)CN2CCOCC2)C(c2ccccc2)c2cc(Br)ccc2N1 (configuration not stated)	0.996	-0.0953
O=C(O)C1C2C=CC(O2)C1C(=O)NC(c1ccccc1)c1ccccc1 (configuration not stated)	1.05	1.13
O=C(Cn1nc(Cc2ccncc2)c2ccccc2c1=O)Nc1ccccc1Cl	1.09	0.952

High-throughput results: PubChem, several laboratories
